Screening results deposited in PubChem BioAssay by National Center for Advancing Translational Sciences (NCATS).
TRPML1 ag: human mucolipin-1 channel agonism; AID 624414; TRPML1-expressing cells, Ca2+ dye fluorescence, FDSS; host cell line not named in the record; reference of the full effect not given here; Q9GZU1; hit rate 0.12% among 410,000; activation, % (concentration not given with the values); in the data active = activation above about 50%; inconclusive = about 30% to 50%; inactive = below about 30%; also: 0% is about no effect; the text of the record puts the active cut at 80%
Target sequence (Q9GZU1 whole entry, looked up): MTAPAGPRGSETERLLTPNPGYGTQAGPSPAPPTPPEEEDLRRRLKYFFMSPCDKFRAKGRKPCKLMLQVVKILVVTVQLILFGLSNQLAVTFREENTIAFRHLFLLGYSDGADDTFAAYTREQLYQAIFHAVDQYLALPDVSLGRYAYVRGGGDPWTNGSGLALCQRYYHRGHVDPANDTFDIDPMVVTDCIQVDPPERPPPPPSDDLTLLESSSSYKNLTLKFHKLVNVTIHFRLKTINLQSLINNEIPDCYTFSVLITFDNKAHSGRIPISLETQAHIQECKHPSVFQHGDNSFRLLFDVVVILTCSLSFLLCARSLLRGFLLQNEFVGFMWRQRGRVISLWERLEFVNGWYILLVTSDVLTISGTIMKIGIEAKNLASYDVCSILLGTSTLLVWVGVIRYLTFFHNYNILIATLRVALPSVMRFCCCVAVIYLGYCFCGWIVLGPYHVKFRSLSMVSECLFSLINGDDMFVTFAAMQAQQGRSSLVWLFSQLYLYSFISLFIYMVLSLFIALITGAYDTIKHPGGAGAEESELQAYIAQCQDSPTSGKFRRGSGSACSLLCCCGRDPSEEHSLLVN
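In this qHTS format, compounds were pin-transferred onto Ca8-dye-loaded TRPML1-DL cells induced with Tet overnight, and intracellular Ca2+ fluorescence was recorded kinetically for 110 s after a 10 s baseline. A subsequent 4uM final 54-4 (EC80) addition followed by a second 110 s read served as the antagonist phase.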
CtBP-E1A blk: blocks the CtBP interaction with E1A. AID 651724. AlphaScreen GST-E1A/His-CtBP binding, 1536-well; active compounds read low; control for the full effect not named in the record. activity change, % (concentration not given with the values). hit rate 0.49% among 340,000; in the data active means activity change below about -65%; inconclusive means about -30% to -65%; inactive means above about -30%; also: % is scaled to controls: 0 for no effect and ±100 for the full control effect
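Protein mix (5X: 125 nM each GST-E1A, His-CtBP) was incubated with pinned compound 2 h at 37 deg C in dark, in 50 mM Tris pH 8.0 buffer with 300 mM NaCl. Glutathione donor and nickel acceptor beads followed; AlphaScreen signal read after 1 h.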
Six1-Eya2 inh: inhibitors of human Six1/Eya2 interaction; Q15475+O00167; AlphaScreen GST-Six1/His-Eya2 binding, biochemical; active compounds read low; control for the full effect not named in the record; activity change, % (test concentration not listed); hit rate 0.56% among 360,000; in the data active = activity change below about -65%; inconclusive = about -30% to -65%; inactive = above about -30%; also: % is scaled to controls: 0 for no effect and ±100 for the full control effect
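Six1/Eya2 binding was read as AlphaScreen signal after compounds were pinned into GST-Six1 plus His-tagged Eya2 (5X stock 250/500 nM) in pH 8.0 Tris/NaCl/TCEP buffer, beads added, then incubated 1 h, 37 C, dark.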
TRPV1 potentiator: human TRPV1 potentiation; TRPV1-expressing cells, Fluo-8 calcium influx, capsaicin EC20 potentiation; host cell line not named in the record; control for the full effect not named in the record; hit rate 0.02% among 320,000; potentiation, % at 8.33 µM; Q8NER1; active means potentiation above 80%; inconclusive means 30% to 80%; inactive means below 30%; also: 0% is about no effect
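Fluo-8 calcium influx in TRPV1-expressing cells, kinetic read (ex 480/em 520 nm). Compound added and read 3 min for agonist activity, followed by capsaicin at EC20 final and 2 min further read for enhancement.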
D2 PAM: human D2 receptor positive allosteric modulation; P14416; DiscoveRx D2 beta-arrestin cells, luminescence, 90 min; 100% = 57 uM dopamine signal; potentiation, % (concentration not given with the values); hit rate 0.23% among 360,000; active = potentiation of 50% or more; inconclusive = 30% to 50%; inactive = 30% or less;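 also: compound concentration not given in the record; tested on top of an EC20 dose of dopamine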
Target sequence (P14416 whole entry, looked up): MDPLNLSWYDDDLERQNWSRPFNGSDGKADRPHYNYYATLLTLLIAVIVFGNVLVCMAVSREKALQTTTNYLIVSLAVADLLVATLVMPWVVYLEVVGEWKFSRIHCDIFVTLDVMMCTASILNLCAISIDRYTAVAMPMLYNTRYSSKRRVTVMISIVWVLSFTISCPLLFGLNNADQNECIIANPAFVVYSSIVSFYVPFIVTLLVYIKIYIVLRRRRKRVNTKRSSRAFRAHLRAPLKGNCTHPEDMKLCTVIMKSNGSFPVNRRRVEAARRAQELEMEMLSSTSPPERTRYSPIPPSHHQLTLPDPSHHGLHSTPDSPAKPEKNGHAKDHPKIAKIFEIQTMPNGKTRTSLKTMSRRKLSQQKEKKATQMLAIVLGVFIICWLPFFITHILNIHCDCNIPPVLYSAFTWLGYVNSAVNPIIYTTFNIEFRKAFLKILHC
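D2 cells co-treated with compound plus 50 nM dopamine (EC20) for 90 min at 37 deg C to detect potentiation. Beta-arrestin recruitment was read as enzyme-fragment luminescence after 1 h at ambient temperature. Full response was set by 57 uM dopamine.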
TRPML1 blocker: inhibitors of human TRPML1 channel; TRPML1-inducible cells, Ca2+ dye fluorescence, FDSS; active compounds read low; inhibition of EC80 agonist-evoked calcium signal; hit rate 0.02% among 390,000; AID 624415; Q9GZU1; activity change, negative = inhibition, % (no concentration beside the values); in the data active means activity change below about -50%; inconclusive means about -30% to -50%; inactive means above about -30%;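 also: stimulus is agonist 54-4 at its EC80 concentration; % is scaled to controls: 0 for no effect and ±100 for the full control effect; compound concentration not given in the record; the text of the record puts the active cut at -80%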
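TRPML1-DL cells, Tet-induced overnight (~16 h, 37 °C) at 1,500 cells/well, were loaded with Ca8 no-wash dye plus quencher for 45-90 min at room temperature. Compounds were pinned during FDSS kinetic reading; agonist 54-4 at EC80 (4 uM final) then added.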
Active calls of the source: *; ? = inconclusive; . = no result given.

SMILES | TRPML1 ag | CtBP-E1A blk | Six1-Eya2 inh | TRPV1 potentiator | D2 PAM | TRPML1 blocker
COc1cc2oc(=O)cc(C)c2c(OC)c1OC | -0.4 | -16 | -5 | -6 | -2 | 9
CCC1CCCCN1C(=O)COC(=O)c1cncc(Br)c1 (stereo not given) | -0.9 | 3 | 6 | . | -6 | 13
COc1ccc(S(=O)(=O)N2CCC(C(=O)Oc3ccc(C)cc3)CC2)cc1OC | 0.6 | 0 | -5 | -3 | -3 | 4
CCC(=O)Nc1cccc(C2=NOC3(C2)C[C@@H](C(N)=O)N(C(=O)CC)C3)c1 (stereo not given in full) | -0.1 | . | 11 | -16 | -2 | 6
COc1ccc(OC)c(NC(=O)CSc2nc(N)c(-c3ccccc3)c(=O)[nH]2)c1 | -0.7 | -2 | -3 | -6 | -12 | 23
CCOc1ccc2nc3c(cc2c1)CN(CCCO)C(=NCCOC)S3 | -1.0 | -9 | -27 | -3 | 1 | 12
CC(=O)c1ccc(NC(=O)CC23CC4CC(C2)CC(n2nnc(C)n2)(C4)C3)cc1 | -0.5 | -3 | 2 | -13 | -5 | 3
COc1ccc(-c2ccc(CN3C(C)C(=O)N(Cc4cn(Cc5ccco5)nn4)CCS3(=O)=O)cc2)cc1 (stereo not given) | 0.5 | 0 | -21 | . | 2 | -10
COc1ccc(NC(=O)C2=C(C)NC(=S)NC2c2ccc(O)c(OC)c2)cc1 (stereo not given) | -0.7 | 3 | -2 | -7 | -3 | 1
O=C(NC1CCN(Cc2ccccc2)CC1)c1c(F)cccc1F | 0.7 | 1 | 6 | -1 | -39 | 10
O=C(Cn1ncc2c1-c1ccccc1OC2)Nc1cccc(Cl)c1 | 1.5 | 0 | -1 | 0 | -11 | -4
CC(C)CNC(=O)c1ccccc1NC(=O)CN(c1ccc2c(c1)OCCO2)S(C)(=O)=O | 0.4 | 3 | 2 | 26 | 2 | 1
COc1ccc(CCC(=O)NNC(=O)Cn2nc(C)cc2C)cc1 | 0.3 | -8 | -1 | 15 | 6 | -1
C/C=C/c1ccc(OCCCCN2CC(C)CC(C)C2)c(OC)c1 (stereo not given) | -0.2 | 5 | -6 | 4 | -16 | -2
O=C(NCc1ccc2c(c1)OCO2)c1nc(S(=O)(=O)Cc2ccccc2F)ncc1Cl | 2.8 | . | -14 | -11 | -30 | 17
CC1CCN(c2ccc3c(c2)S(=O)(=O)c2cccc(C(=O)NC[C@@H]4CCCO4)c2C3=O)CC1 | 0.7 | 6 | 6 | . | 16 | 20
NC(=O)COc1ccc(C(=O)/C=C2/C(=O)Nc3ccccc32)cc1 | 5.1 | -17 | 2 | 13 | -16 | 2
O=C(CCNS(=O)(=O)c1ccc(Br)s1)N1CCN(c2ccccc2)CC1 | -0.3 | -1 | -4 | -1 | 1 | -15
CC(=O)Nc1ccc(NC(=O)COC(=O)c2n[nH]c3ccccc23)cc1 | 0.6 | . | 6 | 5 | -4 | 4
C[C@@H]1CN([C@H](C)CO)S(=O)(=O)c2ccc(C#Cc3ccccc3F)cc2O[C@H]1CN(C)C(=O)c1ccc2c(c1)OCO2 | 2.5 | -17 | -12 | . | -1 | 44
CSc1nc(-c2ccco2)nn1C(=O)Cc1ccccc1 | -0.4 | 5 | 6 | 8 | -5 | -2
CCOc1ccc(C2CC(c3ccc(OC)c(OC)c3)n3nc(N)nc3N2)cc1 (stereo not given) | -0.1 | 5 | 0 | -4 | -1 | -15
O=C(NCc1ccco1)C(=O)N1CCCC1 | . | 3 | -1 | -1 | -4 | .
O=C(NCc1n[nH]c(=S)n1-c1ccc(Br)cc1)c1ccc(S(=O)(=O)N2CCCC2)cc1 | 0.1 | 4 | 2 | 10 | -4 | 0
O=C(NCCc1ccccc1)C1CCN(S(=O)(=O)c2cccs2)CC1 | 0.6 | 2 | 4 | -9 | -3 | -5
Cc1ccc2c(C)c(C(=O)Nc3c(C)n(C)n(-c4ccccc4)c3=O)oc2c1 | -1.5 | -1 | -3 | 5 | -13 | 3
COc1ccc(/C=N/OCC(=O)N=Nc2c(O)[nH]c3ccc(Br)cc23)cc1 | -0.7 | -27 | -5 | 5 | -8 | 13
C=CCN1C(c2ccccc2)=CS/C1=C(/C#N)c1nnc(N2CCOCC2)n1-c1ccccc1 | 0.1 | . | -3 | -2 | -7 | 10
CCC1CCCCN1C(=O)c1sc2ncnc(N(CC)CC)c2c1C (stereo not given) | 0.5 | . | -1 | -28 | -2 | 40
CCSC(=O)NC12CC3CC(CC(C3)C1)C2 | 0.8 | 5 | 0 | -22 | -9 | 13
Cc1nc2ncnn2c(C)c1Cc1cccc(C(F)(F)F)c1 | -0.8 | -14 | 20 | -29 | -5 | -23
COc1ccccc1C(=O)NC(C)C(c1cccs1)N1CCOCC1 (stereo not given) | 0.5 | -6 | -2 | -3 | 8 | 12
O=C(Nc1ccc(S(=O)(=O)N2CCCC2)cc1)c1ccc(Cl)nc1 | -0.2 | -7 | -14 | -3 | -69 | 42
O=C(CC[C@H]1O[C@@H](n2ccc(=O)[nH]c2=O)[C@H](O)[C@@H]1O)NC1CCN(Cc2ccccc2)C1 (stereo not given in full) | -0.6 | 11 | 3 | . | 2 | -9
COCCCNC(=S)N1CCN(c2nc3ccccc3s2)CC1 | -0.5 | -19 | 22 | -21 | -3 | 8
CCNC(=S)N1C2CCC1CC(NC(=O)Nc1ccc(C(=O)OCC)cc1)C2 (stereo not given) | 0.0 | 8 | -7 | 0 | -5 | 3
CCOc1ccccc1NC(=O)CN(C)S(=O)(=O)c1ccc(OC)c(C)c1 | 3.1 | 1 | 5 | -18 | -2 | 0
CCOC(=O)c1cccc(COC(=O)c2cccc(-c3nnc(-c4ccccc4)o3)c2)c1 | 0.6 | 2 | 23 | 0 | -22 | -5
CCOC(=O)/C(C(N)=NC(C)C)=C(\O)c1ccccc1 | -0.1 | 6 | -1 | 3 | 4 | -6
COc1ccccc1N1CCN(C(=O)Cc2c(C(=O)O)[nH]c3ccc(Cl)cc23)CC1 | 3.9 | 3 | -1 | ? | -13 | 9
CC1(C)N([O-])C2=C(c3ccccc3C2=O)[N+](=O)C1(C)C | -0.2 | -1 | 10 | 2 | ? | 11
COc1ccc(CNC(=O)c2cccc(NC(=O)CC3SC(N4CCCCC4)=NC3=O)c2)cc1 (stereo not given) | 2.4 | 2 | 6 | . | -14 | 26
Cc1cccc(C)c1NC(=O)CNc1ccccc1 | -1.1 | 5 | 0 | 5 | -14 | -5
CCOc1ccccc1NC(=O)Nc1ccc(Br)cn1 | -0.4 | 2 | 6 | -1 | -4 | 9
CC[C@]1(C(=O)OC)[C@H]2C(=O)N(C)C(=O)[C@H]2[C@H]2CN=C(SCc3ccc(C)cc3)N21 | 1.5 | 8 | -1 | . | -1 | -24
COc1ccc2[nH]c(=O)c(C(c3nnnn3C3CCCC3)N3CCN(Cc4ccc5c(c4)OCO5)CC3)cc2c1 (stereo not given) | -0.4 | -14 | -11 | 4 | -21 | -3
CC(C)c1ccc(/C=N/NC(=O)c2nnn(-c3nonc3N)c2CSC2=NCCS2)cc1 | 0.4 | 0 | -13 | -4 | -15 | 19
OCCC1CN(C2CSCCSC2)CCN1Cc1ccccc1 (stereo not given) | 0.0 | 5 | 1 | -7 | -20 | 9
CCOC(=O)c1nc(Nc2ccc(Nc3ccccc3)cc2)c2ccccc2n1 | 3.2 | -2 | ? | -1 | 1 | -19
CC(=O)c1c[nH]c2ccc(C)cc2c1=O | 0.6 | 1 | 0 | 3 | 4 | 51
COC(=O)C1C2C=CC3(CN(C(C)c4ccc(OC)cc4)C(=O)C13)O2 (stereo not given) | -0.5 | 5 | 7 | -10 | -10 | 5
CC1(C)CC=C(NNC(=O)c2cccnc2)C(=O)C1 | 3.4 | -4 | 26 | 5 | -7 | -7
COc1ccc(S(=O)(=O)N(C)CC(=O)N2CCCC2)cc1 | 0.5 | -2 | -12 | 2 | -2 | 0
CCOC(=O)c1c(C)[nH]c(C)c1S(=O)(=O)N(C)CC(=O)NCc1cccc(C)c1 | -1.0 | -7 | -2 | -4 | -11 | -6
CC1CN(C(=O)CCC(=O)NCc2ccccc2Cl)c2ccccc2S1 (stereo not given) | 0.3 | 0 | -1 | 3 | -3 | -1
COc1cccc(C(=S)N2CCCC2)c1OC | . | . | 0 | -4 | -6 | .
O=C1N/C(=N\S(=O)(=O)Cc2ccccc2)S/C1=C/c1cc([N+](=O)[O-])ccc1O | 74* | . | -12 | 9 | -14 | -4
CCc1ccc(NC(=O)CCN2C(=O)c3cccnc3C2=O)cc1 | 1.2 | -6 | -6 | -1 | 5 | -6
CCCC(=O)Nc1ccc(Br)c(Cl)c1 | 0.8 | 3 | -5 | 12 | -15 | 8
O=S(=O)(c1ccc(Cl)cc1)c1nc(-c2ccccc2F)oc1NCCN1CCOCC1 | -0.6 | 0 | -20 | -3 | -35 | 72

Reprinted from the part before: 5 compounds, then new ones.
SMILES | TRPML1 ag | CtBP-E1A blk | Six1-Eya2 inh | TRPV1 potentiator | D2 PAM | TRPML1 blocker
COc1cccc(C(=S)N2CCCC2)c1OC | . | . | 0 | -4 | -6 | .
O=C1N/C(=N\S(=O)(=O)Cc2ccccc2)S/C1=C/c1cc([N+](=O)[O-])ccc1O | 74* | . | -12 | 9 | -14 | -4
CCc1ccc(NC(=O)CCN2C(=O)c3cccnc3C2=O)cc1 | 1.2 | -6 | -6 | -1 | 5 | -6
CCCC(=O)Nc1ccc(Br)c(Cl)c1 | 0.8 | 3 | -5 | 12 | -15 | 8
O=S(=O)(c1ccc(Cl)cc1)c1nc(-c2ccccc2F)oc1NCCN1CCOCC1 | -0.6 | 0 | -20 | -3 | -35 | 72
COc1cc(C2N3CC4(C)CN2CC(C)(C3)C4)ccc1O (stereo not given) | -0.8 | 2 | 2 | -28 | -8 | -4
Cc1cccc(-n2ccnc2SCC(=O)c2c(N)n(C3CC3)c(=O)[nH]c2=O)c1C | 1.3 | -17 | 8 | 1 | -3 | -11
CCOc1ccc(C(=O)N(c2ccccn2)C2CCCCC2)cc1 | -0.4 | 0 | -7 | 10 | -7 | 3
CN1CCN(c2ccc(NC(=O)c3ccc(Br)o3)cc2)CC1 | -0.8 | 3 | 3 | -10 | 0 | 37
CCOC(=O)c1cccc2c1-c1ccccc1/C2=N/O | 2.4 | 4 | -3 | 3 | 12 | 3
COc1ccc(N2C(=O)N3[C@H](c4ccc(Br)cc4)[C@@H]4C(=O)N(C(C)(C)C)C(=O)[C@@H]4[C@]3(Cc3ccccc3)C2=O)cc1 | 0.3 | 2 | -3 | -10 | -52 | 0
CN(Cc1ccccc1)C(=O)c1cc(-c2ccc(Br)cc2)on1 | 4.3 | 26 | 21 | -3 | -5 | 52

3 entries already listed, ordered by SMILES length, smallest number first:
SMILES | TRPML1 ag | CtBP-E1A blk | Six1-Eya2 inh | TRPV1 potentiator | D2 PAM | TRPML1 blocker
COc1cc(C2N3CC4(C)CN2CC(C)(C3)C4)ccc1O (stereo not given) | -0.8 | 2 | 2 | -28 | -8 | -4
CN1CCN(c2ccc(NC(=O)c3ccc(Br)o3)cc2)CC1 | -0.8 | 3 | 3 | -10 | 0 | 37
Cc1cccc(-n2ccnc2SCC(=O)c2c(N)n(C3CC3)c(=O)[nH]c2=O)c1C | 1.3 | -17 | 8 | 1 | -3 | -11

No enrichment for hits. About 0.95% of those tested had a hit in this group.
